LASV entry inh – inhibitors of Lassa virus binding or cell entry. Lassa virus pseudotype entry inhibition, cell reporter; control for the full effect not named in the record. Potency, µM (titrated, usually from 37.9 µM), for the others: top-dose activity change, negative = inhibition, usual class: inhibitors. 1.2% of 300,000 active. AID 540256; active means well fitted inhibition curve with a large enough effect; inconclusive means small, poorly fitted or top-dose-only effect, or effect the other way; inactive means flat fitted curve, though single readings scatter; tested in HEK293 cells; note: % is set by controls: 0 for no effect and ±100 for the full control effect; nearly all actives have a fitted effect of over 50% in size; luciferase read-out
Cruzain inh Det – inhibitors of Trypanosoma cruzi cruzain with detergent; P25779; purified cruzain, Z-FR-AMC fluorescence, 0.01% Triton; Potency, µM, for the others: max response, negative = inhibition, most hits filed as inhibitors; 0.43% of 200,000 active; AID 1478;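 note: plate controls were neutral wells for no effect and buffer without enzyme for full effect; nearly all actives have a fitted effect of over 40% in size; top concentration of the series not given in the record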
Target sequence (P25779 123-467 limits assumed): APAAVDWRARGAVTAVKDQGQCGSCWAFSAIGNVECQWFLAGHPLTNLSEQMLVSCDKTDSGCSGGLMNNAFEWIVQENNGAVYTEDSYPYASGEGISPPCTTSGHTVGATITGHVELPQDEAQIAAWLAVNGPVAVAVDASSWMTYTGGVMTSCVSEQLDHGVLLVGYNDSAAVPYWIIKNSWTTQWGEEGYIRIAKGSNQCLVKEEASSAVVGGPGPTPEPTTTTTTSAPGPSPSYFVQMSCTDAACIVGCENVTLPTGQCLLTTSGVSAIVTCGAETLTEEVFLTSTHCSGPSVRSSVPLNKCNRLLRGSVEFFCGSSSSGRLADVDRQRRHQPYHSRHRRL
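Steps: dispense cruzain (1.5 nM final) in acetate buffer pH 5.5 with DTT and 0.01% Triton X-100; pin-transfer compounds; incubate 15 min RT; add Z-FR-AMC (2 uM final); read fluorescence every 30 s, using the 60 s intensity change.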
NS1 inh – influenza NS1 inhibition; 0.4% of 270,000 active; S. cerevisiae slowed by influenza A NS1, growth recovery by OD600; Potency, µM (doses to about 46.1 µM), for the others: top-dose activity, positive = more growth; active means well fitted rising curve with a large enough effect; inconclusive means small, poorly fitted or top-dose-only effect; inactive means no such curve, though single readings can be large or run the other way; note: nearly all actives have a fitted effect of over 50% in size
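OD600 was taken as the measure of yeast growth restored by compound in an NS1-expressing S. cerevisiae strain. Cells had been washed out of glucose medium and diluted 1:100 into galactose -URA medium, pH 6.0.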
Marburg entry inh – inhibitors of Marburg virus binding or cell entry; Marburg virus pseudotyped entry inhibition, cell reporter; control for the full effect not named in the record; about a third of the inactives were read at about 46 µM; Potency, µM (top dose mostly 37.8 µM), for the others: top-dose activity change, negative = inhibition, actives largely listed as inhibitors; 1.8% of 300,000 active; active = well fitted inhibition curve with a large enough effect; inconclusive = small, poorly fitted or top-dose-only effect, or effect the other way; inactive = flat fitted curve, though single readings scatter; tested in HEK293 cells; about a fifth of its hits are not listed in these tables; note: % is set by controls: 0 for no effect and ±100 for the full control effect; luciferase read-out
Cruzain inh noDet – cruzain (T. cruzi) inhibition without detergent | Potency, µM, without a hit: max response, negative = inhibition, actives largely listed as inhibitors | P25779 | 2.3% of 200,000 active | purified cruzain, Z-FR-AMC fluorescence, no detergent | AID 1476;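 note: plate controls were enzyme without inhibitor for no effect and buffer without enzyme for full effect; nearly all actives have a fitted effect of over 40% in size; top concentration of the series not given in the record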
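Purified cruzain at 1.5 nM, pre-incubated 15 min with compound at room temperature in 100 mM sodium acetate pH 5.5, 5 mM DTT, 0.00005% Triton X-100. Reaction started with 2 uM Z-FR-AMC; AMC fluorescence increase over 60 s gives rate.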
SARS PLpro yeast – blocks SARS-CoV papain-like protease in a yeast assay; S. cerevisiae expressing SARS-CoV PLpro, growth rescue; control for the full effect not named in the record; Potency, µM (series often up to 32.9 µM), for the others: at the top dose activity, positive = growth rescue; AID 485353; 0.19% of 330,000 active; active means well fitted rising curve with a large enough effect; inconclusive means small, poorly fitted or top-dose-only effect; inactive means no such curve, though single readings can be large or run the other way; note: 0% is about no effect; nearly all actives have a fitted effect of over 55% in size; growth read by luminescence after 48 h
RE007 growth inh – less growth of the S. pombe RE007 Vpr strain | S. pombe RE007 Vpr strain, BacTiter-Glo ATP luminescence, 24 h; control for the full effect not named in the record | AID 651644 | 0.21% of 360,000 active | Potency, µM (top dose mostly 92.2 µM), inactives show at the top dose activity change, negative = less growth; active = well fitted falling curve with a large enough effect; inconclusive = small, poorly fitted or top-dose-only effect; inactive = no such curve, though single readings can be large or run the other way;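 note: % is set by controls: 0 for no effect and ±100 for the full control effect; nearly all actives have a fitted effect of over 50% in size; the assay follows cell death caused by Vpr and the record does not say whether a fall means rescue or toxicity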
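Fission yeast RE007 carrying one integrated HIV-1 vpr copy, seeded at OD 0.01 in PMG+AL medium with 23 nL pinned compound. Grown 24 h at 30 degrees; viability read by BacTiter-Glo luminescence after 5 min.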
2A StopGo – lowers the luciferase signal of an FMDV 2A StopGo reporter. human cells with a luciferase reporter of 2A StopGo recoding; control for the full effect not named in the record. Potency, µM (highest dose often 57.9 µM), for inactives: top-dose signal change, negative = less light. 1.2% of 410,000 active; active = well fitted falling curve with a large enough effect; inconclusive = small, poorly fitted or top-dose-only effect; inactive = no such curve, though single readings can be large or run the other way; tested in HEK293T cells; note: % is set by controls: 0 for no effect and ±100 for the full control effect; nearly all actives have a fitted effect of over 45% in size; luciferase light after 4 h
* marks the source's active call; other numbers are inactive results; u = inconclusive; x = not tested or not shown; & = joins results of further samples; [ ] = remark or other dose. Unless noted, calls come from the whole dose curve; as a rule, active = well fitted curve in the direction sought with a large enough effect; inconclusive = small, poorly fitted or top-dose-only effect, or another doubt; inactive = no such curve, though single readings can be large; an effect the other way counts as inactive or inconclusive. Potency is the fitted concentration of half-maximal effect. Hits appear at their usual frequency; about 4.8% have a hit in one of these screens.

SMILES	LASV entry inh	Cruzain inh Det	NS1 inh	Marburg entry inh	Cruzain inh noDet	SARS PLpro yeast	RE007 growth inh	2A StopGo
CCCC(=O)C1=C(O)C(C(=O)OC)C(C)(C)CC1=Nc1cccc2ccccc12 (stereo not drawn)	u	-6.7%	8%	u	14%	-27%	7%	-25%
CCN(CC(=O)NC(C)C)C(=O)C(CCSC)NC(=O)c1cccc(C)c1 (stereo not drawn)	-7%	-1.4%	5%	3%	6%	9%	-5%	-23%
CCc1ccc2[nH]c(=O)c(CN(CCN3CCOCC3)C(=O)Nc3ccccc3F)cc2c1	-9%	-2.1%	-58%	9%	-8%	8%	-19%	-14%
O=C1NC(=O)C(=Cc2ccccc2[N+](=O)[O-])S1	u	x	x	u	x	x	-21%	-2%
CCCOP(=O)(OCCC)C(NC(=O)c1cc(OC)c(OC)c(OC)c1)c1ccccc1 (stereo not drawn)	-18%	x	x	u	x	1%	2%	-22%
COCCN(C(=O)Nc1ccccc1)c1ccccc1C	-5%	2.5%	5%	u	9%	-13%	13%	-16%
CCc1nc(Nc2ccncc2)c2oc3ccccc3c2n1	-13%	-10%	-13%	u	-13%	-2%	-2%	-21%
O=C(CCC1N=C2c3ccccc3N=C(SCc3cccc(F)c3)N2C1=O)NCCc1ccccc1 (stereo not drawn)	u	-4.0%	x	x	u	x	x	-17%
O=C(NCCCNCc1ccccc1)c1ccncc1	u	4.1%	0%	22%	10%	-3%	5%	16%
Cc1cc(C)cc(NC(=O)CSc2nnc(CN3CCOCC3)n2C)c1	-13%	0.8%	7%	8%	-11%	7%	-2%	31%[activator]
O=C(C=Cc1ccccn1)c1ccccc1	u	x	x	u	x	x	25µM*	u
Cn1cccc1Cc1nnc(SCC(=O)N2CCCCCC2)n1-c1ccc(F)cc1	x	-5.9%	20%	x	17%	-9%	-9%	0%
O=S(=O)(NC1CCCCC1Nc1ccccc1)c1ccccc1 (stereo not drawn)	8%	-3.8%	1%	u	5%	0%	-14%	-14%
Cc1cccc(N(C)c2cc(C)nc3nc(C)nn23)c1	x	-3.0%	-9%	x	3%	-9%	16%	-21%
COC(=O)CN1C(=O)CSc2ccc(S(=O)(=O)Nc3cccc(Cl)c3C)cc21	16%[46.1 µM]	-7.4%	x	x	0%	x	x	10%
COc1ccccc1NC(=S)NCc1ccc(S(N)(=O)=O)cc1	u	0.0%	9%	2%	12%	-3%	13%	-5%
COCCNC(=O)Cn1cc(/C=C2\C(=O)NC(=O)N(c3cccc(C)c3C)C2=O)c2ccccc21	1%	x	6%	8%	x	-2%	5%	u
CC(C)[C@@H](C(=O)N1CCN(C(=O)OC(C)(C)C)CC1)n1cc(CCO)nn1	x	x	-2%	x	x	1%	6%	-9%
Cc1cccn2c(=O)c3cc(C(N)=S)c(=N)n(CCCOC(C)C)c3nc12	u	u	24%	u	-3%	11%	-17%	-10%
CC(=O)Nc1ccc(NC(=O)CSc2nccn2Cc2ccccc2)cc1	2%	2.5%	-2%	2%	6%	2%	14%	-26%
CC1(C)OC2CC3C4CC=C5CC(O)CCC5(C)C4CCC3(C)C2(C(=O)CO)O1 (stereo not drawn)	24%[46.1 µM]	x	x	u	x	x	15%	-5%
Cc1cc(C(=O)N/N=C/c2c(C)nn(-c3ccccc3)c2Cl)n[nH]1	-26%	x	4%	u	x	0%	-8%	25%
CC(=O)c1ccc(NC(=O)c2sc(-n3nc(C)c(Cc4ccccc4)c3C)nc2C)cc1	-2%[46.1 µM]	-2.5%	x	19%[46.1 µM]	u	x	x	u
Cc1nc2ccccc2n1CCc1nc2c3ccccc3nc(SCC(=O)Nc3cccc(C(F)(F)F)c3)n2n1	-5%[46.1 µM]	0.5%	x	x	u	x	x	0%
COc1ccccc1C(=O)NC1CCN(C(=S)NCCc2ccccc2)CC1	u	x	-4%	u	x	0%	-7%	-22%
O=C(NNc1nc2c(F)cc(F)cc2s1)C1=COCCO1	-3%[46.1 µM]	x	x	8%[46.1 µM]	x	4%	5%	3%
CCc1ccc(NC(=O)C(=O)c2ccccc2NC(C)=O)cc1	u	x	x	u	x	0%	17%	33%[activator]
Cc1oc(-c2ccc(Cl)cc2)nc1CN1CCC(C(=O)N2CCc3ccccc3C2)CC1	x	0.0%	-21%	3%	-11%	1%	-7%	22µM*
CCN(CC(=O)Nc1ccc(NC(C)=O)cc1)C(=O)c1ccccc1CCc1ccccc1	-8%	x	x	u	x	0%	0%	0%
O=C(CC1Oc2ccc(Cl)cc2NC1=O)NCc1ccccc1 (stereo not drawn)	x	0.1%	x	5%[46.1 µM]	-2%	x	x	-8%
O=C(c1ccco1)N(Cc1ccco1)Cc1cc2ccccc2[nH]c1=O	3%[46.1 µM]	x	0%	10%[46.1 µM]	x	-3%	-5%	-11%
COc1ccc(CCC(=O)NCc2ccc3c(c2)CCN3C(=O)c2cccc(C)c2)cc1	-8%[46.1 µM]	-3.1%	x	x	21%	x	x	u
CCOc1ccc(CCNC(=O)c2cccs2)cc1OCC	19%[46.1 µM]	x	-18%	-6%[46.1 µM]	x	2%	6%	6%
CCOC(=O)C(CC)/C(C)=N/NC(=O)c1ccccc1[N+](=O)[O-] (stereo not drawn)	10%	3.5%	5%	-8%	-8%	-5%	0%	x
CCc1nnc2c3ccccc3nc(N3CCN(c4cc(Cl)ccc4C)CC3)n12	24%[46.1 µM]	0.3%	x	x	-9%	x	x	-9%
Cc1ccc(-n2c(-c3ccccc3)c[n+]3c2CCC3)cc1	u	x	0%	u	x	-1%	-6%	u
Cc1ccc(C2CC(c3ccccc3Cl)n3nc(N)nc3N2)cc1 (stereo not drawn)	x	0.0%	-6%	x	-5%	1%	8%	-17%
COc1ccccc1NC(=O)Nc1ccnn1Cc1cccs1	-18%	-1.5%	-19%	-36%[46.1 µM]	-5%	-7%	7%	50%[activator]
CCN1CCN(C(=O)c2ccc(Cn3c(=O)[nH]c4cc(OC)c(OC)cc4c3=O)cc2)CC1	1%	2.8%	12%	10%	-7%	5%	0%	-4%
CCn1cc(C(=O)N2CCN(Cc3ccc4c(c3)OCO4)CC2)c2cc(OC)c(OC)cc2c1=O	-26%	1.0%	-16%	19%&19%	4%	1%	-1%	-19%
Cc1c(Cl)cccc1NC(=O)Nc1nnc(N(C)C2CCCCC2)s1	7%[46.1 µM]	-6.8%	x	u	u	x	x	1%
Cc1cc(C)c(C(=O)COC(=O)c2cc([N+](=O)[O-])ccc2NCCO)cc1C	1%	-8.9%	-3%	9%	2%	19%	2%	4%
CN1CCN(C(=O)CN(C)S(=O)(=O)c2cc(Cl)ccc2Cl)CC1	1%	x	-3%	5%[46.1 µM]	x	-1%	-6%	14%
COc1cc(CNCCc2ccc3c(c2)OCO3)cc(OC)c1OC	-11%	x	x	u	x	0%	-2%	-1%
Cc1c(C(=O)O)oc2c3c(ccc12)OCCO3	-1%	1.0%	-25%	u	2%	-1%	-2%	-14%
Cc1cc(C)cc(NC(=O)Cn2c(=O)oc3cc(S(=O)(=O)N4CC(C)CC(C)C4)ccc32)c1 (stereo not drawn)	x	-10%	u	2%	1%	9%	-1%	17%
Cc1ccc(-c2cc(C(=O)Nc3ccncc3)c3ccccc3n2)cc1	u	x	x	u	x	-1%	-7%	-8%
CCOc1ccc2nc(NS(=O)(=O)Cc3ccccc3)sc2c1	-5%	1.3%	-13%	u	-2%	9%	-20%	73%[activator]
O=C(NCc1ccccc1)N1CCc2c(sc3c2CCCC3)C1c1ccccc1 (stereo not drawn)	u	-2.4%	x	x	u	x	x	-11%
COc1ccc(OC)c(N2C(=O)CC(NNC(=O)c3ccc4c(c3)OCO4)C2=O)c1 (stereo not drawn)	5%[46.1 µM]	x	x	14%[46.1 µM]	x	-1%	-7%	-13%
Next section
SMILES	LASV entry inh	Cruzain inh Det	NS1 inh	Marburg entry inh	Cruzain inh noDet	SARS PLpro yeast	RE007 growth inh	2A StopGo
O=C(Cc1ccc([N+](=O)[O-])cc1)OCc1ccc([N+](=O)[O-])cc1	9%	x	-19%	1%[46.1 µM]	x	0%	4%	-6%
O=C(COC(=O)c1ccc(Cl)cc1O)NCCN1C(=O)CSC1=O	x	x	2%	x	x	0%	6%	-10%
COc1ccc(-n2cc(-c3ccccc3)nc2SCC(=O)Nc2ccccc2C)cc1	-22%[46.1 µM]	-1.3%	x	x	-15%	x	x	0%
O=C(O)CCC(=O)NNc1nc(-c2ccccc2)c2cc(Cl)ccc2n1	x	x	6%	x	x	3%	8%	-9%
CC(C)c1ccc(NNC(=O)C2CCC2)cc1	-7%	x	-32%	u	x	-1%	18%	-2%
COc1ccc(-c2cc3ccc(O)c(CN4CCCC4)c3oc2=O)cc1OC	13%[46.1 µM]	-7.3%	x	x	-21%	x	x	28%
Cn1cnc2c(N/N=C/c3cccs3)ncnc21	u	x	2%	u	x	-1%	-14%	-1%
CCCCn1c(N)c(N(CC(C)C)C(=O)CN(C)S(=O)(=O)c2ccc(NC(C)=O)cc2)c(=O)[nH]c1=O	u	x	x	u	x	-3%	-15%	-2%
O=C(N/N=C\c1cc(Br)cs1)c1ccncc1	x	x	-4%	x	x	5%	2%	21%
Cc1nc2c(=O)n(C)c(=O)n(C)c2nc1Cl	u	-8.0%	-42%	8.2µM*	-8%	-34%	-24%	u
COc1cc(-c2cc3n(C)c(C)c(CCC(=O)NC4CCC(C)CC4)c(=O)n3n2)cc(OC)c1OC (stereo not drawn)	1%[46.1 µM]	-0.7%	x	x	23%	x	x	10%
O=C(c1ccc[nH]c1=S)N1CCN(S(=O)(=O)c2ccc(Br)cc2Cl)CC1	4%	x	-5%	-9%[46.1 µM]	x	0%	-1%	-9%
O=[N+]([O-])c1ccc2nc(CCCO)[nH]c2c1	18%[46.1 µM]	x	0%	4%	x	1%	-9%	-7%
COc1ncnc2c1N[C@@](C)(O)c1c(F)c(F)c(F)c(F)c1S2	-7%	-5.9%	-4%	11%	-2%	-3%	-9%	-19%
CN1CCN(CCCN(Cc2ccco2)C(=S)Nc2ccc(Cl)cc2)CC1	u	x	2%	u	x	-4%	-3%	-10%
CSc1ccccc1NC(=O)c1cccs1	16%	3.7%	-11%	u	-1%	7%	-25%	-16%
